T cruzi inh – inhibitors of intracellular T. cruzi growth, primary screen, luminescence, NIH3T3 host cells. 1.4% of 300,000 active. T. cruzi beta-gal in NIH3T3, 90 h. AID 1885, 2009. inhibition, % (concentration not given with the values);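 active = mean inhibition across valid replicates above about 55%, limit read from the data; inconclusive = mean below that limit but half or more replicates reach it; inactive = mean below it, under half of replicates reach it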;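 also: signal also drops with host cell toxicity which is not excluded here; 0% = plate median of DMSO wells and 100% = zero luminescence signal; higher percent means less beta-gal luminescence so fewer parasites; stock transfer was 50 nL into about 50 µL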
Ecoli rRNA inh – reduced GFP signal of wild-type E. coli, primary screen, bacterial rRNA inhibitor project, GFP/RFP fluorescence, OD600, single point; 1.6% of 350,000 active; E. coli WT GFP vs humanized-ribosome RFP mutants, 24 h; stronger effect = lower value; DMSO median 0, no signal -100; GFP signal change (wild-type ribosome), % (test concentration not listed);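 active = significant combined selectivity score with lowered wild-type GFP, culture density cut under 30%, mutant RFP and density less affected; inactive = any of these conditions unmet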; also: one replicate is shown; some compounds called inactive have numbers as strong as hits
FGF22 binding – binders of human FGF22 protein, primary screen, FGF22 synaptogenesis inhibitor project, biophysical, thermal shift, single point; calls only at 9.99 µM; 1.5% of 340,000 active; recombinant FGF22 thermal shift, SYPRO orange fluorescence; percent of sucrose octasulfate shift, DMSO zero;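 active = melting point raised past a set limit in the mean and every replicate; inconclusive = no clear call; three in four hits are not shown here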
Target sequence (Q9HCT0 whole entry, looked up): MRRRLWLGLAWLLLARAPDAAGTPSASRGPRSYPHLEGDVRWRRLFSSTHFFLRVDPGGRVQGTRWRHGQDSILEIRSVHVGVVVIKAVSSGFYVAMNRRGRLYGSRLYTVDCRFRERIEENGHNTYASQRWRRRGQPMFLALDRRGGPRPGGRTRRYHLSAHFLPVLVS
MLL AF4-AF9 inh – inhibitors of AF4 peptide binding to AF9, primary screen, biochemical, AlphaScreen, biotin-AF4 peptide, FLAG-AF9, single point; Protein AF-9 (Homo sapiens), P42568; inhibition, % at 10 µM; 0.47% of 350,000 active; AID 651704, 2012;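 active = every replicate reaching a set inhibition limit, whatever the replicate mean, cut at about 25% in these data; inconclusive = mean inhibition reaches that limit but some replicates miss it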;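 also: 0% = plate neutral control median and 100% = total signal loss; the record names both 10 and 1 µM as test concentration; the first replicate is given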
Target sequence (P42568 whole entry, looked up): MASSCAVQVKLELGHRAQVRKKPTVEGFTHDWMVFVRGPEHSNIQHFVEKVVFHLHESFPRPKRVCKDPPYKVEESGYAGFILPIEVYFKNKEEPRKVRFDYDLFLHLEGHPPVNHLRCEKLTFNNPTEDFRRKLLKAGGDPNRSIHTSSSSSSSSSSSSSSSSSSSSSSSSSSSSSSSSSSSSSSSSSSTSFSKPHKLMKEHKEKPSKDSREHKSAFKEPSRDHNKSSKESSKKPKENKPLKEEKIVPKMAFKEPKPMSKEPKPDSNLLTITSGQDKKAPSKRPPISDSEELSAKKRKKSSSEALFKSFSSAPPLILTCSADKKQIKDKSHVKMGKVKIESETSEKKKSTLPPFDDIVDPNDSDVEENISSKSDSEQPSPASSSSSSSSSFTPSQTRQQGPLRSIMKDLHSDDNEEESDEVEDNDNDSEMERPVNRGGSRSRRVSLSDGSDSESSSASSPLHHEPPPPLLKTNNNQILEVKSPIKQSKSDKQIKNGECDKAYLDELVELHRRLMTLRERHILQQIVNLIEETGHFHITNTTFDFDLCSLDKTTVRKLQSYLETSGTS
Beta cell apopt – inhibitors of cytokine-induced beta cell apoptosis, primary screen, luminescence | INS-1E cytokine-induced death, ATP luminescence, 48 h; percent of positive-control rescue, neutral wells zero | protection from apoptosis, % (concentration not given with the values) | 0.8% of 300,000 active | AID 435005, 2010;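 active = all replicates at 75% or more, or half of them and the mean; inconclusive = half reach 75% but not the mean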;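 also: 0% = cytokine-treated negative control wells and 100% = positive control rescue; higher means more ATP so stronger rescue from cytokine killing; wells of about 40 µL received 100 nL stock; the first replicate is given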
Bfl-1 A1 inh – caspase 3/7 activation in MEF A1-2A-BIM cells, primary screen, A1 inhibitor project, cell-based, luminescence, HTS. AID 2462, 2010. 0.066% of 330,000 active. Caspase-Glo 3/7 luminescence, 3 h; percent of clofoctol response, vehicle zero. caspase activation, % (test concentration not listed);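 active = over half of replicate activation scores above 10%, or exactly half above 10 with the replicate mean above 10; inconclusive = replicate mean below 10 yet half the replicates above 10; inactive = over half of replicates below 10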;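 also: wells of about 30 µL received 50 nL stock; many hits fall short of the cut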
Ecoli growth – E. coli growth inhibition, primary screen, OD600; Escherichia coli growth, 23 h; stronger effect = lower value; 0.21% of 330,000 active; OD600 absorbance (concentration not given with the values); AID 1053175, 2014;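 active = OD600 absorbance below the run mean of sample wells minus 3.6 SD, in any replicate, cut at about 0.56 in these data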;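 also: stock transfer was 300 nL into about 60 µL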
UCH37 DUB inh – inhibitors of human UCH37 deubiquitinase, primary screen, biochemical, Ub-AMC cleavage, fluorescence. 0.33% of 330,000 active. Ubiquitin carboxyl-terminal hydrolase isozyme L5 (Homo sapiens), Q9Y5K5. purified proteasome/UCH37. inhibition, % (test concentration not listed);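 active = mean of two replicates above 20%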;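 also: 0% = compound-free wells with enzyme and 100% = wells lacking proteasome; stock transfer was 100 nL into about 20 µL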
Target sequence (Q9Y5K5 whole entry, looked up): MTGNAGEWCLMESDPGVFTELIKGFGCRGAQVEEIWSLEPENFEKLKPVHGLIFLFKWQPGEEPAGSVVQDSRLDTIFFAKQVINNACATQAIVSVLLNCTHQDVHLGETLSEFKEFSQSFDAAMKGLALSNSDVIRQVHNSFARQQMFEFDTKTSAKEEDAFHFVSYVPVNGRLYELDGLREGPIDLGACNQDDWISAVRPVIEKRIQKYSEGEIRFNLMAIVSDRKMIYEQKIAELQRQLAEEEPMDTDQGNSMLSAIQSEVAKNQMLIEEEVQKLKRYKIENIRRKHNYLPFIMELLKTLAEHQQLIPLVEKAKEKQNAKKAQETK
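Reagent: Ub-AMC substrate; assay system: Proteasome-associated human UCH37 deubiquitinase; controls: no-proteasome and no-compound wells; read-out: % inhibition of Ub-AMC cleavage fluorescence; timing: 30 min preincubation with enzyme, 25 min cleavage at room temperature; signal: AMC fluorescence from Ub-AMC cleavage, excitation 355 nm, emission 460 nm; buffer or medium: Tris-HCl pH 7.4 plus ovalbumin, ATP-MgCl2, DTT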
Ecoli rRNA inh OD600 – recorded beside Ecoli rRNA inh, whose call it bears; OD600 change, %; measured here: OD600 growth;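 optical density of the mix in the first replicate; 0 = DMSO median and -100 = no signal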
Ecoli rRNA inh RFP – second read-out of Ecoli rRNA inh, no call of its own (marks repeat the call); RFP signal change, %; measured here: RFP humanized mutant strains;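 first replicate; 0 = DMSO median and -100 = no signal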
The depositor's hits bear a star; i = inactive; ? = inconclusive; · = no result given; & = joins results of further samples. Only part of the results is shown. The share of hits here may be higher or lower than overall.

mol | T cruzi inh | Ecoli rRNA inh | Ecoli rRNA inh OD600 | Ecoli rRNA inh RFP | FGF22 binding | MLL AF4-AF9 inh | Beta cell apopt | Bfl-1 A1 inh | Ecoli growth | UCH37 DUB inh
COc1ccc(-n2c(SCC(N)=O)nnc2-c2ccc(NS(=O)(=O)c3ccc(C)cc3)cc2)cc1 | -1 | · | · | · | · | · | 4 | 0.9 | 0.74 | 3.3
CN(C)CCC#CC1(O)c2ccccc2-c2ccccc21 | -17 | 14 | 9 | -0.2 | i | -3.0 | -1 | 0.6 | 0.71 | 1.4
COc1cccc(-c2nc(COc3ccc(Cl)cc3Cl)no2)c1 | · | 7 | 7 | 1.3 | i | -10 | -1 | 0.0 | 0.67 | 2.2
O=C(Nc1ccccc1)C1=C[C@@H](C2CCCCC2)C[C@@H](OCc2ccc(CO)cc2)O1 | 24 | 1 | 4 | 0.8 | i | 0.3&3.5 | 1 | -0.2 | · | 5.5
O=C(Nc1ccc(Cl)cc1)Nc1ccccc1CC[N+](=O)[O-] | -10 | 1 | 4 | 2.3 | i | 0.8 | 3 | 0.4 | 0.63 | 2.7
CCOC(=O)c1ccc(NC(=S)NN)cc1 | 4 | 9 | 6 | 9.6 | · | 0.8 | 5 | -0.6 | 0.7 | 1.7
COc1cc2oc3cc(C#Cc4ccc(N)cc4)ccc3c(=O)c2cc1OC | -9 | · | · | · | i | -30 | 68 | 0.2 | 0.7 | -8.8
CC12CC(NC(=O)N1c1cccc(C(=O)N3CCN(c4ccccc4F)CC3)c1)c1ccccc1O2 (centres undefined) | 15 | · | · | · | · | · | 7 | -0.2 | 0.73 | 1.4
Cc1ccc(N2CC(NS(=O)(=O)c3cccs3)CC2=O)cc1C (centres undefined) | -3 | -5 | -10 | 0.3 | i | -19 | 1 | 0.3 | 0.65 | 6.9
CC1(C)CC2c3cccc(C(=O)O)c3C(=O)N2c2c1ccc1ccccc21 (centres undefined) | -6 | · | · | · | · | · | 3 | -0.6 | 0.7 | -2.8
O=C(NCc1ccc(OC(F)(F)F)cc1)C1CC2Cn3c(nc4ccccc43)C2N1Cc1ccccc1 (centres undefined) | 14 | 1 | -3 | -5.3 | i | ? | 13 | 0.1 | 0.68 | 3.8
CN(C)CCN(Cc1ccccc1)S(=O)(=O)c1ccc2c(c1)n(C)c(=O)c(=O)n2C | 2 | 7 | 2 | -1.2 | i | -4.8 | -2 | 0.7 | 0.68 | -1.9
COCCn1c(SCC(=O)Nc2ccc3c(c2)OCCO3)nnc1C(C)C | 0 | 7 | 11 | 1.6 | i | -0.2 | 1 | 0.1 | 0.65 | 1.6
COc1cc2c(-c3ccccc3O)nc3c(c(C)nn3-c3ccccc3)c2cc1OC | 2 | · | · | · | · | · | 4 | -0.4 | 0.73 | -39
Cc1cc(NC(=O)c2ccc3c(c2)OCO3)no1 | -2 | · | · | · | · | · | -4 | -5.6 | 0.65 | 3.5
CCOc1cc(/C=C2\SC(=Nc3ccc(CC)cc3)NC2=O)ccc1OCC(=O)O | 5 | -11 | 11 | 29 | i | -65 | -2 | -0.4 | 0.67 | 4.8
CN1C(=O)CC(N2CCN(CC(=O)N3CCCC3)CC2)C1=O (centres undefined) | -15 | · | · | · | · | · | -8 | -0.8 | 0.69 | 0.0
COc1cc(/C=N\NC(=O)c2ccc(-c3ccccc3)cc2)ccc1OCC(N)=O | -9 | 6 | 3 | -1.3 | i | -2.1 | 5 | -0.2 | · | ·
O=C(NCc1cccnc1)c1cc2nc(-c3ccc4c(c3)OCO4)cc(C(F)(F)F)n2n1 | 7 | 1 | -10 | -4.6 | i | -3.2 | -6 | -0.3 | 0.71 | -16
CNC(C)C#Cc1ccc2oc3cccc(OC)c3c(=O)c2c1 (centres undefined) | 19 | -16 | -9 | -8.2 | i | -1.4 | 8 | 0.5 | · | -34
O=C(CSc1nnc(CNC(=O)c2cccs2)o1)Nc1ccc(F)cc1F | 13 | 7 | 14 | 2.1 | i | -11 | -4 | 1.0 | 0.66 | 6.0
Cc1c(CCC(=O)O)c(=O)oc2cc(OCc3cccc(Cl)c3)ccc12 | -8 | -14 | -19 | 1.7 | i | -2.5 | -4 | 0.2 | 0.61 | -295
C[C@H](NC(=O)c1nc[nH]c1C(=O)NC1CCN(C(=O)OC(C)(C)C)CC1)C(=O)OC(C)(C)C | -7 | 3 | -5 | 34 | i | 2.0 | -3 | 0.2 | · | ·
COc1ccccc1NC(=S)N1CCC(C(=O)c2ccc(F)cc2)CC1 | 6 | -12 | -13 | -3.0 | i | -1.2 | -2 | -0.4 | 0.68 | 3.3
Cc1cc(C)cc(C(=O)OCC(=O)N2CCCCCC2)c1 | · | 2 | -6 | -0.3 | i | 0.0 | · | · | 0.66 | 1.7
N#CC1=C(N)C2=CCCC[C@H]2[C@H](c2cccc(F)c2)C1(C#N)C#N | -5 | 9 | -5 | 18 | i | 0.5 | -11 | 0.2 | 0.69 | 1.8
O=C(NCC1CCCO1)c1cccc(S(=O)(=O)Nc2ccc(SC(F)F)cc2)c1 (centres undefined) | · | 0 | -41 | -6.4 | i | 4.3 | -5 | 0.8 | 0.67 | -2.9
CN1C(=O)C(CCC(=O)O)NC1=S (centres undefined) | -6 | 0 | 2 | -1.5 | i | -8.4 | -6 | -0.1 | 0.71 | 3.2
O=C(Nc1nnc(-c2ccccc2Cl)o1)c1ccc(S(=O)(=O)N2CCCCCC2)cc1 | 47 | · | · | · | · | · | · | 1.6 | 0.69 | 0.2
O=C(N1CCC(n2nc(-c3ccccc3)oc2=O)CC1)C1(c2ccc(Cl)cc2)CC1 | 13 | · | · | · | · | · | 6 | -1.0 | 0.71 | 0.0
Cc1cc(C)c(/C=N/NC(=O)c2nnn(-c3nonc3N)c2COc2ccc(F)cc2)c(C)c1 | 19 | -14 | -9 | -3.1 | · | 1.8 | -3 | 0.8 | · | ·
Cn1c(SCc2ccc(Cl)cc2Cl)nc(C(F)(F)F)cc1=O | -18 | · | · | · | · | · | -2 | 0.1 | 0.68 | 3.6

Part of the list above with just MLL AF4-AF9 inh and Beta cell apopt.
SMILES	MLL AF4-AF9 inh	Beta cell apopt
O=C(NCC1CCCO1)c1cccc(S(=O)(=O)Nc2ccc(SC(F)F)cc2)c1 (centres undefined)	4.3	-5
N#CC1=C(N)C2=CCCC[C@H]2[C@H](c2cccc(F)c2)C1(C#N)C#N	0.5	-11
CN1C(=O)C(CCC(=O)O)NC1=S (centres undefined)	-8.4	-6
Cc1cc(C)cc(C(=O)OCC(=O)N2CCCCCC2)c1	0.0	·
Cn1c(SCc2ccc(Cl)cc2Cl)nc(C(F)(F)F)cc1=O	·	-2

(listing goes on)
mol | T cruzi inh | Ecoli rRNA inh | Ecoli rRNA inh OD600 | Ecoli rRNA inh RFP | FGF22 binding | MLL AF4-AF9 inh | Beta cell apopt | Bfl-1 A1 inh | Ecoli growth | UCH37 DUB inh
COc1ccc(CCN(C(=O)C(F)(F)F)C(C(=O)NC2CCCCC2)c2ccc(C)s2)cc1OC (centres undefined) | 28 | · | · | · | · | · | · | 0.2 | 0.69 | -0.1
COc1ccc(CCNC(=O)c2cc(-c3ccc4c(c3)OCO4)on2)cc1OC | 12 | 12 | -5 | -4.9 | i | 4.8 | -2 | 1.5 | 0.73 | 2.2
O=C(c1ccc2c(c1)OCCO2)N1CCN(c2ccccn2)CC1 | -1 | 7 | 0 | -1.5 | i | -0.7 | 4 | -0.5 | 0.7 | -1.2
COC(=O)C(C)Sc1nc2c(cnn2-c2ccc(C)cc2)c(=O)[nH]1 (centres undefined) | -3 | · | · | · | · | · | 1 | 2.4 | 0.69 | 2.9
CC1=NN(C(=O)COc2ccccc2)C(O)(c2ccccc2)C1 (centres undefined) | 4 | · | · | · | · | · | -3 | 0.0 | 0.67 | 0.2
CCOC(=O)C1CCN(Cc2ccc(O)c3ncccc23)CC1 | 55* | · | · | · | · | · | 85* | -0.4 | 0.66 | -2.3
O=C(CSc1nc2ccccc2c(=O)[nH]1)N1CCN(c2ccccc2)CC1 | 13 | 10 | 11 | -0.6 | i | -2.1 | -1 | 0.1 | 0.64 | 0.7
Cc1cc(-c2n[nH]c(=S)n2-c2ccc(C)c(C)c2)no1 | -4 | · | · | · | · | · | -5 | 0.9 | 0.72 | 4.8
CC(=O)N1CCN(c2ccc(NC(=O)c3ccc(Cl)c(Cl)c3)cc2)CC1 | 5 | 10 | 15 | 1.7 | i | -1.9 | -7 | -0.3 | 0.65 | 5.7
NC1(C#Cc2ccc3c(=O)c4ccccc4sc3c2)CCCCC1 | · | -4 | -16 | 25 | i | 7.2 | 4 | -1.7 | · | -5.1
Cc1ccc(C(=O)NC(=S)Nc2ccc(CN3CCOCC3)cc2)cc1 | 11 | 8 | 3 | 0.9 | i | -2.0 | -1 | 0.2 | 0.71 | 3.6
Cc1c(-n2c(SCC(=O)NC(C)C)nc3ccccc3c2=O)c(=O)n(-c2ccccc2)n1C | -6 | 0 | 0 | -2.9 | i | -1.3 | -8 | -0.9 | 0.68 | 3.1
C=C(C)C1CC=C(C)/C(=N/Nc2ccccc2[N+](=O)[O-])C1 (centres undefined) | 7 | -2 | -1 | -9.5 | i | 18 | 2 | 0.0 | · | ·
COc1ccc(NC(=O)N2CCN(C(=O)c3ccco3)CC2)c(OC)c1 | -4 | -1 | 0 | 0.0 | i | 1.4 | -7 | 0.5 | 0.7 | 3.8
COCCn1c(SCC(=O)Nc2ccc(NC(C)=O)cc2)nc2ccccc2c1=O | -6 | 7 | 4 | -1.4 | i | 3.4 | · | 0.6 | 0.68 | 1.8

Fetched one by one from the entries so far, 2 records:
mol | T cruzi inh | Ecoli rRNA inh | Ecoli rRNA inh OD600 | Ecoli rRNA inh RFP | FGF22 binding | MLL AF4-AF9 inh | Beta cell apopt | Bfl-1 A1 inh | Ecoli growth | UCH37 DUB inh
N#CC1=C(N)C2=CCCC[C@H]2[C@H](c2cccc(F)c2)C1(C#N)C#N | -5 | 9 | -5 | 18 | i | 0.5 | -11 | 0.2 | 0.69 | 1.8
CC1=NN(C(=O)COc2ccccc2)C(O)(c2ccccc2)C1 (centres undefined) | 4 | · | · | · | · | · | -3 | 0.0 | 0.67 | 0.2

Screening results deposited in PubChem BioAssay by several laboratories.
